OX1R antag: human HCRTR1 antagonism; inhibition, % at 5 µM; actives 0.43% (n = 330,000); CHO/OX1R cells, Fluo-8 calcium fluorescence, orexin A;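 active = inhibition above its plate's threshold, mean inhibition of all tested compounds on the plate plus 3 SD, cut at about 37% in these data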;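 also: 0% = orexin A challenge wells and 100% = SB-334867-A antagonist wells; not every result past the cut was called active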
Target sequence (O43613 whole entry, looked up): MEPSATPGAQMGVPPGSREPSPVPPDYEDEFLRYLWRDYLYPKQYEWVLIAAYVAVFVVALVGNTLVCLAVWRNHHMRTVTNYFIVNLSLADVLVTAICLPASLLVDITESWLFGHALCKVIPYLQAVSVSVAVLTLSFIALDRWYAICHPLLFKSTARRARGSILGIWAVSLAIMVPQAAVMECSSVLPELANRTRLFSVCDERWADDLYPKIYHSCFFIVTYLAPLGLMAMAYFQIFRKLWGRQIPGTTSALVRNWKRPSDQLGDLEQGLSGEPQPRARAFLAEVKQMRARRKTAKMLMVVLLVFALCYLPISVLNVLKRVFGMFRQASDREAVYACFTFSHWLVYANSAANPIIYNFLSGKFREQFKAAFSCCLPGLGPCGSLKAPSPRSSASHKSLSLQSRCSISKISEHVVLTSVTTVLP
Active calls of the source: *.

SMILES | OX1R antag
CCOc1ccc(/C=N/OCC(=O)Nc2ccc(OCc3ccccc3)cc2)cc1OC | 8
CC(C)(C)CC(=O)Nc1ccccc1N1CCN(c2ccc(F)cc2)CC1 | -37
CN(C)S(=O)(=O)c1ccc(Cl)c(NC(=O)CN2CCNC(=O)C2)c1 | 3
CC(C)N1CCN(CC#Cc2ccccc2)CC1CCO (configuration not stated) | -20
COc1ccc(Cc2nc3ccc(C(=O)N(C)C(C)c4ccon4)cc3o2)cc1 (configuration not stated) | -4
CC(=O)c1ccn(S(=O)(=O)c2ccc(Cl)cc2)c1 | -12
CC(C)c1ccc(NC(=O)C2CC(=O)Nc3nc4ccccc4n32)cc1 (configuration not stated) | -8
COc1ccc2ccccc2c1CNC(=O)CC1C(=O)NCCN1CC(C)(C)C (configuration not stated) | -18
CC(NC(=O)c1ccc(Br)o1)c1ccccc1 (configuration not stated) | -11
CN1/C(=C/C=C(C#N)C#N)C=Cc2ccccc21 | 16
O=C1c2ccccc2NC(c2ccco2)N1O (configuration not stated) | -10
C=CCNC(=O)c1onc(CSc2ccccc2CC)c1C(=O)O | 5
COc1ccc(Nc2nc(NCCN3CCOCC3)nc(Nc3ccc(OC)cc3)n2)cc1 | -17
CC(=O)c1nc(N2C(=O)C3CC=C(C)CC3C2=O)sc1C (configuration not stated) | -2
Nn1c(SCc2ccccc2)nnc1-c1ccccn1 | -5
Cc1nc2ncnn2c(C)c1Cc1c(Cl)cccc1Cl | 10
COc1ccc(OC)c(NC(=O)C2CCN(Cc3cnn(-c4ccccc4)c3-n3cccc3)CC2)c1 | -27
COc1ccc(Br)cc1CN(C)CC(=O)Nc1cccc(S(N)(=O)=O)c1 | -26
Cn1c(C(=O)N[C@@H](C(=O)O)c2ccccc2)cc2cc(F)ccc21 | -6
CCN(c1ccc(C)c(C)c1)S(=O)(=O)c1ccc2c(c1)CCN2C(=O)CCC(=O)O | -26
CCn1nccc1C(=O)Nc1cc(Cl)ccc1Cl | -8
CC(=O)c1ccccc1OCCOCCOCCOc1ccccc1C(C)=O | -4
c1cnc(SCCCOc2ccc3ccccc3c2)nc1 | -12
COC(=O)C1C2C=CC3(CN(c4cccc(C)c4)C(=O)C13)O2 (configuration not stated) | -11
CC1CN(C(=O)c2c([N+](=O)[O-])cnn2C)CC(C)O1 (configuration not stated) | 10

Shown field by field: part of the list above
COc1ccc(Cc2nc3ccc(C(=O)N(C)C(C)c4ccon4)cc3o2)cc1 (configuration not stated)
  OX1R antag: -4
CC(=O)c1ccn(S(=O)(=O)c2ccc(Cl)cc2)c1
  OX1R antag: -12

More results.
SMILES | OX1R antag
Cc1c(OC(C)C(=O)NC(Cc2c[nH]c3ccc(O)cc23)C(=O)O)ccc2c1oc(=O)c1ccccc12 (configuration not stated) | -10
CCOC(=O)Cc1csc(NC(=O)COc2ccc(C)cc2)n1 | -24
CC(=O)N(c1cccc(Br)c1)c1nc(C)cc(C)c1C#N | -9
CC1=Nn2c(nnc2-c2ccccc2Cl)SC1 | -13
CN(C)c1ncc(S(=O)(=O)c2ccccc2)c(-c2ccccc2Cl)n1 | -13
CC(C)(C)OC(=O)N[C@@H](Cc1ccccc1)C(=O)NCC1CCC(C(=O)N[C@@H](CC(=O)O)C(=O)O)CC1 (some centres not stated) | -2
CCOC(=O)CNc1nc(Cl)nc(NC(C)(C)C)n1 | -16
CCOc1ccc2nc(NC(=O)c3ccc(OCC4CCCO4)cc3)sc2c1 (configuration not stated) | -23
Cc1ccc(NC(=O)CN2CCN(S(=O)(=O)c3cccs3)CC2)cc1S(=O)(=O)N(C)C | 1
c1ccc(COc2cccc(CN3CCCCC3)c2)cc1 | -23
CCc1nn(CC(=O)NCCCN(Cc2ccccc2)C(C)C)c(=O)c2cc3sccc3n12 | -22
COc1ccc(C(=O)c2ccc(N3CCOCC3)c([N+](=O)[O-])c2)cc1 | -31
CC(C)C(=O)Nc1ccc(-c2nc3ncccc3o2)cc1 | 0
CCOc1ccc(/C=C/[N+](=O)[O-])c2ccccc12 | 21
C/C(=N\Nc1nc2ccc(Cl)cc2o1)c1ccccc1 | -30
O=C(NCc1cc(C(F)(F)F)cc(C(F)(F)F)c1)C1CC(c2ccccc2C(F)(F)F)=NO1 (configuration not stated) | -24
O=C(Nc1ccccc1)NN(C(=O)CCl)c1ccccc1 | -2
COc1ccc(N2CCN(C(CNC(=O)C(=O)NC3CCCC3)c3ccco3)CC2)cc1 (configuration not stated) | -20
Cc1ccc(OCC(O)CNC(=O)c2ccccc2C(=O)O)cc1 (configuration not stated) | -11
O=S(=O)(c1ccccc1F)N1CCN(CC(O)c2ccccc2)CC1 (configuration not stated) | -15
Clc1ccccc1-c1ncc(-c2ccccc2)o1 | -11
O=c1nc(N2CCOCC2)nc(N/N=C/c2ccc3c(c2)OCO3)[nH]1 | -18
O=C(Nc1ccnn1C1CCN(Cc2cccc(O)c2)CC1)C1CCCC1 | -13
O=S(=O)(c1ccc2ccccc2c1)N(CC(O)CN1CCOCC1)c1ccccc1 (configuration not stated) | -33
O=C(NCc1ccc2c(c1)OCO2)c1cccc(S(=O)(=O)N2CCCCC2)c1 | -12

(list continues)
SMILES | OX1R antag
CCOc1ccc(/C=N/N2CCN(Cc3ccccc3)CC2)cc1 | -16
Cc1cc(S(=O)(=O)N2CCOCC2)ccc1OCC(=O)Nc1ccc(F)c(Cl)c1 | -14
O=C(N/N=C/c1cccs1)c1cnccn1 | -5
CCOC(=O)c1c(N)nn(C(=O)C(C)(C)C)c1-c1ccccc1 | -5
CCOC(=O)c1csc(NC(=O)CN2CCOCC2)n1 | -9
COCc1cc(C)nc(N2CCN(Cc3ccccc3)CC2)c1C#N | -19
Cc1ccc2nc(-c3ccncc3)cc(C(=O)N3CCOCC3)c2c1 | 2
CN(C)c1ccc(C(=O)OCC(=O)NCC2CCCO2)cc1 (configuration not stated) | -2
Cc1ccc(C(=O)N2CCCCC2)cc1S(=O)(=O)N1CCCC1 | -8
O=C(CSc1nc2ccccc2n1CCc1ccccc1)N1CCOCC1 | -22
CCCCc1oc2ccccc2c1C(=O)c1cc(I)c(OCCN(CC)CC)c(I)c1 | -2
Nc1ccccc1SCC(=O)Nc1ccc(N2CCOCC2)cc1 | -17
O=C(CS(=O)(=O)Cc1ccccc1)Nc1nnc(C(F)(F)F)s1 | -11
COCCCNC(=O)Cn1nnc(-c2ccc(NC(=O)c3ccccc3F)cc2)n1 | -25
Cc1nn2c(NCCN(C)C)c3c(nc2c1-c1ccccc1)CCC3 | -17
Cc1onc(-c2ccccc2)c1-c1csc(N/N=C/c2ccccc2Cl)n1 | -34
CCCOc1c(Cl)cc(/C=N/O)cc1OCC | -11
COc1ccccc1NC(=S)N(CCCN1CCOCC1)Cc1cccs1 | -15
CCOC(=O)N1CCN(C(=O)CN2C(=O)CC(C)(C)S(=O)(=O)c3ccccc32)CC1 | -4
Cc1ccc(CN2CCN(CC(C)C)C(CCO)C2)s1 (configuration not stated) | -20
CC(C)C(NS(=O)(=O)c1cccs1)C(=O)N1CCc2ccccc2C1 (configuration not stated) | -28
O=C1NN=C(c2ccccc2)CC1c1c[nH]c2ccccc12 (configuration not stated) | -14
COCCNS(=O)(=O)c1cc(OC)ccc1OC | 4
COc1ccc(-c2nn(-c3ccccc3)cc2/C=N/NC(N)=S)cc1OC | 0
COc1ccc(Cc2noc(CN3CCCN(C4Cc5ccccc5C4)CC3)n2)cc1OC | -29

(more compounds)
SMILES | OX1R antag
CSc1ncccc1C(=O)OCc1nc2ccsc2c(=O)[nH]1 | -13
c1cc(-c2cn(C[C@H]3CC[C@@H]([C@@H]4CC[C@H](Cn5cc(-c6ccsc6)nn5)O4)O3)nn2)cs1 | -18
CCOc1ccc(-c2nc(C#N)c(N3CCN(CC)CC3)o2)cc1 | -14
COC(=O)c1ccccc1NC(=O)/C=C/C(=O)O | -18
Cc1nnc(SCC(=O)c2c(N)n(Cc3ccccc3)c(=O)n(C)c2=O)n1C | -5
CN(CC(=O)NCc1ccc2c(c1)OCO2)S(=O)(=O)c1ccc(Br)s1 | -27
COc1ccc(C)cc1NC(=O)Cn1cnc2sc(C)c(S(=O)(=O)N3CCOCC3)c2c1=O | -27
O=S(=O)(c1ccc(Cl)cc1)c1cc(O)ccc1O | -3
Cc1ccccc1C(=O)N1CCC(C(=O)NC2CCCC2)CC1 | -20
O=[N+]([O-])c1ccc(F)cc1Oc1nc(-c2cccnc2)nc2ccccc12 | -16
C=C(C)CC(NCc1ccco1)c1ccc(OC)cc1 (configuration not stated) | -10
O=C(NCc1ccc(F)cc1)N1CCc2ccccc2C1 | -14
COc1ccccc1Cn1c(=O)c2ccccc2n2c(Sc3ncnc4sccc34)nnc12 | -25
CCOc1ccc(S(=O)(=O)NCCC(=O)NC2CCN(Cc3ccccc3)CC2)cc1 | -40
CC(=O)Nc1ccc(OC(=O)N2CCCC2)cc1 | 1

The list continues:
SMILES | OX1R antag
CCOC(=O)N1CCN(Cc2nc(-c3cccc(C)c3)no2)CC1 | -16
COc1cccc(S(=O)(=O)Nc2ccc3sc(C)nc3c2)c1 | -14
COc1ccc(NC(=O)c2sccc2SCc2cccc(C(F)(F)F)c2)cc1 | -22
COc1ccc(C2CC(c3ccccc3)Nc3nc(NS(C)(=O)=O)nn32)cc1 (configuration not stated) | 8
CCCC1COC(Cn2cncn2)(c2ccc(C)cc2)O1 (configuration not stated) | -6
CC(=O)Nc1ccc(C2Nc3cc(C)c(C)cc3NC3=C2C(=O)CC(C)(C)C3)cc1 (configuration not stated) | -16
Cc1ccc(Cn2c(=O)n(C)c(=O)c3sccc32)cc1 | -28
Cc1nn2c(=O)cc(COC(=O)c3ccc(NC(=O)C(C)(C)C)cc3)nc2s1 | -6
CSCCC(NC(=O)c1ccccc1)C(=O)OCC(=O)Nc1ccc(C)c(Cl)c1 (configuration not stated) | 4
Cc1ccc(C)c(OCC(=O)NCCN(C)C)c1 | 2
COc1ccc(NC(=O)Cc2nnc(SCC(=O)Nc3ccccc3)n2C)cc1 | -11
Cc1nnsc1-c1c(C(=O)N2CCOCC2)c(C)nn1-c1ccccc1 | -13
CC(C)Cc1cc(CN2CCC(CO)(Cc3cccc(C(F)(F)F)c3)CC2)[nH]n1 | -19
COCCN(CCOC)C(=S)Nc1cc(S(=O)(=O)N(C)C)ccc1C | -27
COc1ccc(/C=C/C(=O)N2CCCc3ccccc32)c(OC)c1 | -27

Additional entries:
SMILES | OX1R antag
O=C(O)c1ccc(CSc2nc3ccccc3c(=O)n2-c2ccccc2)cc1 | 1
Cc1ccnc(N2CCC(C(=O)Nc3ccc4c(c3)OCO4)CC2)n1 | -8
Cc1cccc(C)c1NC(=O)COC(=O)CSc1nnc(N)s1 | 6
CC(=O)c1sc(NC(=O)C2=NN(c3ccccc3)C(=O)CC2)nc1C | -17
O=C1CSC(=Nc2ccc(O)cc2)N1c1ccc(O)cc1 | -4
O=S(=O)(NCC(c1cccs1)N1CCc2ccccc2C1)c1ccccc1 (configuration not stated) | -48
Cc1ccc(S(=O)(=O)C(C#N)c2nc3ccccc3nc2N2CC(C)OC(C)C2)cc1C (configuration not stated) | -23
CCc1nc2ccccc2[nH]1 | -19
Cc1cccc(NC(=O)c2nc(-c3ccccc3)n(-c3ccccc3)n2)c1C | -20
CSCCC(NC(=O)c1ccco1)C(=O)OCC(=O)Nc1sccc1C#N (configuration not stated) | 6
Cc1nn(-c2ccccc2)c2c1C(c1ccccc1)C(C#N)=C(N)O2 (configuration not stated) | 5
CCOC(=O)C1CCCN(C(=O)C2CCCN(S(C)(=O)=O)C2)C1 (configuration not stated) | -2
O=C(Nc1c(F)cc(F)cc1Br)c1cc2nc(C(F)F)cc(C(F)F)n2n1 | -24
COc1ccc2c(CSc3nnc(-c4cccnc4)n3-c3ccccc3F)cc(=O)oc2c1 | -18
CCOc1ccc(CN2CCC(n3nccc3NC(=O)C3CC3)CC2)cc1CO | -7

(next part)
SMILES | OX1R antag
O=C(Cc1cccc2ccccc12)NN1C(=O)/C(=C\c2cccnc2)SC1=S | -4
COc1ccc(-c2nc(CS(=O)(=O)CC(=O)NC3CCCCCC3)c(C)o2)cc1 | -25
Cc1ccc2oc(-c3cccc(NC(=O)/C=C/c4cccc([N+](=O)[O-])c4)c3C)nc2c1 | -34
Cc1ccc(SCC(=O)Nc2ccc(S(=O)(=O)Nc3nccs3)cc2)cc1 | -10
CCOc1ccc(C2C(C(=O)c3ccco3)=C(O)C(=O)N2CCN2CCOCC2)cc1OCC (configuration not stated) | -5
Cc1ccc(Nc2nc(/N=C/NO)n[nH]2)cc1C | -22
Cc1nn(-c2ccccc2)c(C)c1NC(=O)COc1ccc(Cl)cc1Cl | -22

Entries above with a thiophene ring, fused or not, in the order listed:
SMILES | OX1R antag
Cc1ccc(NC(=O)CN2CCN(S(=O)(=O)c3cccs3)CC2)cc1S(=O)(=O)N(C)C | 1
CCc1nn(CC(=O)NCCCN(Cc2ccccc2)C(C)C)c(=O)c2cc3sccc3n12 | -22
O=C(N/N=C/c1cccs1)c1cnccn1 | -5
COc1ccccc1NC(=S)N(CCCN1CCOCC1)Cc1cccs1 | -15
Cc1ccc(CN2CCN(CC(C)C)C(CCO)C2)s1 (configuration not stated) | -20
CC(C)C(NS(=O)(=O)c1cccs1)C(=O)N1CCc2ccccc2C1 (configuration not stated) | -28
CSc1ncccc1C(=O)OCc1nc2ccsc2c(=O)[nH]1 | -13
c1cc(-c2cn(C[C@H]3CC[C@@H]([C@@H]4CC[C@H](Cn5cc(-c6ccsc6)nn5)O4)O3)nn2)cs1 | -18
CN(CC(=O)NCc1ccc2c(c1)OCO2)S(=O)(=O)c1ccc(Br)s1 | -27
COc1ccc(C)cc1NC(=O)Cn1cnc2sc(C)c(S(=O)(=O)N3CCOCC3)c2c1=O | -27
COc1ccccc1Cn1c(=O)c2ccccc2n2c(Sc3ncnc4sccc34)nnc12 | -25
COc1ccc(NC(=O)c2sccc2SCc2cccc(C(F)(F)F)c2)cc1 | -22
Cc1ccc(Cn2c(=O)n(C)c(=O)c3sccc32)cc1 | -28
O=S(=O)(NCC(c1cccs1)N1CCc2ccccc2C1)c1ccccc1 (configuration not stated) | -48
CSCCC(NC(=O)c1ccco1)C(=O)OCC(=O)Nc1sccc1C#N (configuration not stated) | 6

Screening data from PubChem.

A portion of the library, and most or all hits are left out here.
